RGS16-Gao: RGS16-Galphao interaction regulator (human); O15492+P09471; binding response (% of control), % at 10 µM; hit rate 0.38% among 220,000; bead-based flow cytometry RGS16-Galphao binding, fluorescence; actives lie on both sides;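 active = below 25% or above 175%, edge rows of some plates excepted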;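 note: Galphao activated by GDP with aluminum fluoride before binding; 100% = wells without compound and 0% = beads without RGS; some results beyond the cut were filed as inactive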
PKD1 inh: PKD1 (human) kinase inhibition; PKD1 kinase fluorescence polarization assay; inhibition, %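 (about 10 µM by stock and volumes)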; hit rate 0.056% among 200,000; Q15139;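 active = inhibition of 50% or more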;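 note: controls were vehicle for no effect and a reference inhibitor for full effect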
Target sequence (Q15139 whole entry, looked up): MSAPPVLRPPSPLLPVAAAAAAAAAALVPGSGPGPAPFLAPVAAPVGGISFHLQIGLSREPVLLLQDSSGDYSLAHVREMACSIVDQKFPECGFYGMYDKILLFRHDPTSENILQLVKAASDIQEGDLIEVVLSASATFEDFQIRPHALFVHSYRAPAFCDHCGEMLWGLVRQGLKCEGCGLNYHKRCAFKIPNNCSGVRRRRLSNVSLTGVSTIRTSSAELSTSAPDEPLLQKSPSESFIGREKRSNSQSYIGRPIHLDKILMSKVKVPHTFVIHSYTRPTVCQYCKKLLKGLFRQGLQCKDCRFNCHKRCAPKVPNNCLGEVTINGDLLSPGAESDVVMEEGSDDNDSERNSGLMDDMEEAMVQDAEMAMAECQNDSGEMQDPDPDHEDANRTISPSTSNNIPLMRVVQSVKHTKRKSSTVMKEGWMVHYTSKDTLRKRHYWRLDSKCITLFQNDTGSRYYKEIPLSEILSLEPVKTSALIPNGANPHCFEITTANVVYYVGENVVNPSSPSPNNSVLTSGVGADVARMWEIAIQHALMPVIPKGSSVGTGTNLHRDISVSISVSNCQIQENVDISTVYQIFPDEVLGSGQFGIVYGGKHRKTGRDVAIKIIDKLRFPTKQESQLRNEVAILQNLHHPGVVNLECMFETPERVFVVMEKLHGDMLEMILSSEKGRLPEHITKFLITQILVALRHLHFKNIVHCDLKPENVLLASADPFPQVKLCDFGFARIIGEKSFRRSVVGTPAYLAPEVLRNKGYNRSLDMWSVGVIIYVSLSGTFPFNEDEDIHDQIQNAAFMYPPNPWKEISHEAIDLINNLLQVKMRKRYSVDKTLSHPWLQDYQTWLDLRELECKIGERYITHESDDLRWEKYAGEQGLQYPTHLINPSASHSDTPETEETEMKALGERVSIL
HSV replic up: increases HSV replication in cells. HSV replication augmentation in cells, fold increase. AID 1956. hit rate 0.005% among 220,000. maximum fold increase;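 active = peak rise of 1.5-fold or more in the series; inconclusive = self-fluorescent or not available for retest; tested in PC3 cells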;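 note: first round at 10 µM; read as green reporter fluorescence; hits show the peak of a series up to 25 µM; 1 = signal of infected wells without compound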
Insulin prom inh: TRM-6 insulin promoter activity inhibition; TRM-6 cells (human fetal islet line), insulin promoter-eGFP reporter, imaging; reporter expression induced with tamoxifen; inhibition, % at 2 µM; hit rate 0.9% among 130,000; AID 1273;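 active = inhibition above the mean plus 3 SD, with well images judged a real hit on visual review, cut at about 60% in these data, passing the limit was not always enough; inconclusive = inhibition over the cutoff but images rejected on review; inactive = inhibition not above the cutoff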
GALR2 agonist: GALR2 (human) receptor agonism; O43603; GALR2-expressing cells, agonist activation read-out; activation, %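 (tested at 5 µM)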; hit rate 0.48% among 140,000; AID 803;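 active = above mean plus 3 SD of all compounds, about 5% in these data, not always enough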;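 note: 0% = vehicle buffer wells and 100% = reference agonist at full effect; tested in CHO reporter cells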
Insulin prom inh cell count: also measured in Insulin prom inh; calls as there; normalized cell count, %; measured here: cell count, toxicity; reference of the scale not given here;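 cells exposed to compound for 48 h; stained nuclei by imaging scaled within each plate; lower means fewer cells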
HSV replic up primary fold: further read-out of HSV replic up, marked with its call; fold increase; compound at 10 µM; measured here: primary screen fold increase 10 uM; tested in PC3 cells;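 GFP signal in the first replicate; 1 = infected wells without compound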
* = called active by the depositor; i = inactive; ? = inconclusive; . = no result given.

item	Structure	RGS16-Gao	PKD1 inh	HSV replic up	HSV replic up primary fold	Insulin prom inh	Insulin prom inh cell count	GALR2 agonist
1	CC(OC(=O)COc1ccccc1[N+](=O)[O-])C(=O)Nc1ccc(N2CCOCC2)cc1 (stereo unspecified)	102	0	i	1.2	-5	64	.
2	O=C(c1cc(F)ccc1F)C1CCCN(C(=O)c2cccs2)C1 (stereo unspecified)	98	-4	i	1.1	.	.	.
3	CCn1cc(C(=O)NCc2ccccc2Cl)cn1	103	-9	i	0.98	-53	131	-1.6
4	COc1ccc(OC(C)C(=O)N2CCCc3ccccc32)cc1 (stereo unspecified)	94	0	i	1	.	.	.
5	Cc1cc(C2(c3cc(C)c(NC(=O)CN4CCOCC4)c(C)c3)CCCCC2)cc(C)c1NC(=O)CN1CCOCC1	106	-2	i	0.87	-13	82	-2.4
6	COc1cccc(/C=C(/C#N)c2ccc(Cl)cc2)c1OCc1cccc(C(=O)O)c1	100	-2	i	1.1	.	.	.
7	CCCCCc1nnc(NS(C)(=O)=O)s1	102	-9	i	0.94	24	179	-1.6
8	Cc1ccc(COc2ccc(Br)cc2/C=N/O)cc1	102	8	i	0.84	-29	83	-0.5
9	COc1ccc(C(=O)/C=C/C(=O)N(Cc2ccc(F)cc2)C(C(=O)NC2CCCCC2)c2ccncc2)c(O)c1 (stereo unspecified)	106	-2	i	0.96	-100	68	0.3
10	Cc1c(C(=O)Nc2nc3ccccc3[nH]2)cccc1[N+](=O)[O-]	104	4	i	0.92	.	.	-0.6
11	Cn1c(=O)c2c(nc(N3CCCCC3)n2CCCNC2=NCCCC2)n(C)c1=O	102	0	.	.	41	100	-2.1
12	COc1ccc(-c2cc(CNS(=O)(=O)c3ccc(F)cc3)on2)cc1	97	4	i	1	.	.	.
13	Cc1ccc(N2CCN(CCc3nc4cc(NS(C)(=O)=O)ccc4n3C)CC2)cc1	278	-11	i	0.79	.	.	-2.1
14	C/C(=N\NC(=S)NC1CCCCC1)c1ccc(O)cc1	98	-6	i	0.96	.	.	.
15	c1ccc(Nc2ccccc2Nc2ccccn2)nc1	99	-9	i	0.92	0	142	-1.8
16	CCOc1ccc(N2C(=O)CC(N(CCc3ccc(OC)cc3)C(=O)/C=C/C(=O)O)C2=O)cc1 (stereo unspecified)	105	-10	i	0.97	-106	54	.
17	NC(=O)c1ccsc1NC(=O)COC(=O)Cc1ccsc1	97	-5	i	0.88	13	117	-2.1
18	CNc1nc(N)c([N+](=O)[O-])c(Nc2cccc(F)c2)n1	101	.	i	0.83	.	.	.
19	Cc1noc(NS(=O)(=O)c2ccc(N/C=C\C(=O)c3cccs3)cc2)c1C	105	6	i	0.97	22	129	.
20	CCCCCOc1ccc(NC(=O)CSc2cccc3cccnc23)cc1	102	-8	i	0.87	-12	143	-1.1
21	Cc1ccc2c(CC(=O)NC3CCCc4ccccc43)coc2c1 (stereo unspecified)	105	9	i	1.1	-108	120	-0.6
22	COCCNC(=O)/C(C#N)=C/c1ccc(OCc2ccc(F)cc2)cc1	98	6	i	0.86	.	.	.
23	CCOc1ccc(C2C=C(c3ccc(C)cc3)Nc3nnnn32)cc1 (stereo unspecified)	102	5	?	.	27	116	-2.5
24	CN(NC(=O)C1CC(=O)N(c2ccccc2)C1)C1=NS(=O)(=O)c2ccccc21 (stereo unspecified)	97	-3	i	1	.	.	.
25	CCOC(=O)c1c(-c2ccccc2)cn2ccccc12	108	-7	i	0.94	-11	54	-0.8
26	COc1ccc2nc(SCC(=O)NCC(F)(F)F)[nH]c2c1	97	-6	i	0.98	-89	37	.
27	CCOC(=O)N1CCN(c2ncnc3c2oc2nc(C(C)C)c4c(c23)CCC4)CC1	101	-5	i	0.85	.	.	-1.2
28	COCCCNC(=O)CN1C(=O)/C(=C\c2ccc(C)cc2)Sc2ccccc21	106	-11	i	0.89	-15	108	-1.0
29	Cc1ccc(NC(=O)CSCC(=O)Nc2ncc3c(n2)CC(c2ccco2)CC3=O)cc1 (stereo unspecified)	106	2	i	0.94	-3	178	-1.6
30	C=CCSc1nc2sc(C)c(C)c2c(=O)n1CC=C	99	-2	i	0.96	55	104	-2.9
31	COc1ccc(CNC(=O)NCc2ccc(OC)c(OC)c2)cc1OC	137	-2	i	1.1	.	.	-2.3
32	COC(=O)C1=C(C)NC(=S)N(C(C)=O)C1c1ccc(OC)c(OC)c1 (stereo unspecified)	103	5	i	0.88	.	.	2.0
33	COc1ccc(CNC(=O)c2cccc(S(=O)(=O)N3CCN(C)CC3)c2)cc1	120	-5	i	0.94	-30	40	.
34	COc1ccc2oc(C)c(C(=O)NN)c2c1	85	-1	i	0.79	.	.	-0.4
35	CC(C)CN(C(=O)COC(=O)c1cc2c(s1)CCC2)C1CCS(=O)(=O)C1 (stereo unspecified)	102	-17	i	0.97	64	94	-0.4
36	COC(=O)CN1C(=O)C2(OCCCO2)c2cc(Br)ccc21	103	13	i	0.93	23	77	-2.0
37	Cc1ccc2nc(CSc3nnc(Nc4ccccc4F)s3)cc(=O)n2c1	98	-4	i	0.92	-13	107	1.0
38	O=c1oc2ccccc2c(Nc2ccccc2)c1CN1CCCCC1	103	.	i	0.89	.	.	.
39	CSc1nnc(C(C)(C)C)c(=O)n1/N=C/c1ccccc1	102	.	i	1	.	.	.
40	COc1ccc(S(=O)(=O)n2ccc(-c3ccc(OCCN(C)c4ccccn4)cc3)n2)cc1	114	3	i	0.85	21	93	-2.3
41	CCCn1nnnc1NCc1c(Cl)cccc1Cl	102	-3	i	0.81	47	131	.
42	O=C(Cc1ccc(-n2c(=S)[nH]c3ccccc3c2=O)cc1)N1CCC(N2CCCCC2)CC1	111	-1	i	0.94	-475	44	-2.6
43	CN(c1cccc(NC(=O)COc2ccccc2)c1)S(C)(=O)=O	102	0	i	1	-12	166	-1.5
44	COCCCNC(=O)c1cccn2c(=O)c3cc4ccccc4cc3nc12	96	19	i	0.81	-5	84	-0.9
45	COc1ccc2c(c1)c(CC(=O)OCC(=O)O)c(C)n2C(=O)c1ccc(Cl)cc1	106	14	i	1	-8	114	.

Some of these compounds in order of molecular weight, falling:
item	Structure	RGS16-Gao	PKD1 inh	HSV replic up	HSV replic up primary fold	Insulin prom inh	Insulin prom inh cell count	GALR2 agonist
40	COc1ccc(S(=O)(=O)n2ccc(-c3ccc(OCCN(C)c4ccccn4)cc3)n2)cc1	114	3	i	0.85	21	93	-2.3
37	Cc1ccc2nc(CSc3nnc(Nc4ccccc4F)s3)cc(=O)n2c1	98	-4	i	0.92	-13	107	1.0
44	COCCCNC(=O)c1cccn2c(=O)c3cc4ccccc4cc3nc12	96	19	i	0.81	-5	84	-0.9
43	CN(c1cccc(NC(=O)COc2ccccc2)c1)S(C)(=O)=O	102	0	i	1	-12	166	-1.5
41	CCCn1nnnc1NCc1c(Cl)cccc1Cl	102	-3	i	0.81	47	131	.

The results go on:
item	Structure	RGS16-Gao	PKD1 inh	HSV replic up	HSV replic up primary fold	Insulin prom inh	Insulin prom inh cell count	GALR2 agonist
46	C=CCNC(=S)NNC(=O)c1cc(O)ccc1O	103	-6	i	1.1	.	.	.
47	Oc1ccc(Nc2nc(-c3ccc4ccccc4c3)cs2)cc1	106	-5	i	0.69	-60	91	-2.5
48	Cc1cccc(N(CC(N)=O)C2SC(=O)N(c3ccccc3)C2=O)c1 (stereo unspecified)	104	-1	i	0.82	-29	136	-1.6
49	COc1ccccc1N1CCN(C(=O)c2cc3c(s2)CCC3)CC1	51	-7	i	0.84	-32	117	-1.7
50	Cc1cc(C)nc(SCc2cc(=O)c(OC(=O)c3ccc(Cl)c([N+](=O)[O-])c3)co2)n1	105	-5	i	0.99	.	.	-1.1
51	CCCCN(CC)CCNC(=O)C1c2cc(OC)c(OC)cc2C(=O)N2CCc3ccccc3C12 (stereo unspecified)	98	-7	i	0.93	50	50	-0.5
52	COCCCN(C(=O)c1cccnc1SC)c1c(N)n(Cc2ccccc2)c(=O)[nH]c1=O	102	4	i	0.92	.	.	-1.6
53	Cc1cccc(S(=O)(=O)Nc2nc3ccccc3nc2NCC2CCCO2)c1 (stereo unspecified)	98	.	i	0.94	.	.	.
54	Oc1ccccc1Nc1ncnc2c1oc1ccccc12	98	1	i	0.97	18	80	1.2
55	CC(=O)Nc1ccc(NS(=O)(=O)c2ccc(Cl)s2)cc1	100	-6	i	1.1	18	103	.
56	NC(=O)c1ccc(C(=O)c2ccc([N+](=O)[O-])cc2)cc1	101	-9	.	.	58	132	-0.1
57	O=C(CCCn1c(=O)oc2ccccc21)NC1CCCCCC1	115	2	i	0.88	.	.	.
58	Cc1ccc(S(=O)(=O)N[C@H](C(=O)N2CCC3(O)CCCCC3C2)c2ccccc2)cc1 (stereo partly specified)	102	-2	i	0.93	-13	133	-1.3
59	CCC(C)NC(=O)CSc1nc2ccsc2c(=O)n1NC(=O)c1ccccc1 (stereo unspecified)	89	-1	i	1.2	38	85	0.5
60	CC(=O)n1c2ccccc2c2ccccc21	99	-8	i	0.86	-9	151	-2.0
61	Cc1nc2ccccc2n1S(=O)(=O)c1ccc(S(=O)(=O)N2CCCCCC2)cc1	97	4	i	1	.	.	-0.8
62	CCSc1cc(N2CC(C)OC(C)C2)nc(-c2ccccc2Cl)n1 (stereo unspecified)	104	4	i	1	31	90	0.0
63	CC(=O)Cc1cc(=O)c2c(C)cc(O)c(C3OC(CO)C(O)C(O)C3O)c2o1 (stereo unspecified)	98	.	i	1.1	.	.	.
64	Cn1cc(SCC(=O)NCc2ccc(F)cc2)c2ccccc21	104	5	i	1.1	57	120	.
65	N#C/C(=C\c1ccc([N+](=O)[O-])cc1)c1nc(C2CC2)cs1	93	-9	i	1	28	84	-0.8
66	C/C(=N\NC(=O)c1ccc(N2CCCC2=O)cc1)c1ccncc1	100	.	i	0.93	.	.	.
67	CCC(C(=O)NC1CCCC1)N(Cc1cccs1)C(=O)Cn1nnc(-c2ccc(OC)c(OC)c2)n1 (stereo unspecified)	107	1	i	1.1	-329	68	-1.1
68	CC(C)N(C(=O)COC(=O)[C@@H]1CC(O)CN1S(=O)(=O)c1ccc(C(C)(C)C)cc1)C(C)C (stereo partly specified)	101	0	i	0.92	.	.	.
69	O=C(c1ccc([N+](=O)[O-])cc1)N1CCSC1c1ccccc1Cl (stereo unspecified)	102	5	i	1.1	-6	103	.
70	Nc1cc(OCC(F)(F)F)cc(OCC(F)(F)F)c1	104	5	i	0.97	.	.	.
71	Cc1cccc(N2C(=O)c3ccc(C(=O)Nc4c[nH]c(=O)[nH]c4=O)cc3C2=O)c1	98	.	i	0.95	.	.	.
72	Cc1ccc(S(=O)(=O)/N=C(\c2ccc(F)cc2)n2c(C)nc3ccccc32)cc1	101	-8	i	1	3	139	-0.4
73	CC(=O)OC[C@H]1O[C@H](CCO/N=C(\C)CCN2CCCc3nc(C)c(C)cc32)C=C[C@@H]1OC(C)=O	65	-5	i	1.2	-5	107	-1.4
74	O=C(CSc1nc2ccccc2[nH]1)Nc1ccc2c(c1)CCC2	76	-4	i	1	21	71	-0.9
75	CCCCC[n+]1ccn(-c2nc3ccccc3nc2[N-]S(=O)(=O)c2ccc(C)cc2)c1	78	-8	i	1	-58	51	0.1

Bioassay records as filed in PubChem.
